Bioassay records as filed in PubChem.
GLA inh pH 4.5: alpha-galactosidase A (human) inhibition, pH 4.5. purified enzyme, 4-MU-alpha-Gal fluorescence, pH 4.5. P06280. activity change, negative = inhibition, % at 105 µM. 230,000 tested, under 10 active; inconclusive = small, poorly fitted or top-dose-only inhibition, or a rising curve; inactive = flat fitted curve, though single readings scatter; no compound was filed as active;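 also: 0% = full activity with enzyme and -100% = basal without enzyme; dose as in the result columns while the protocol names 77 µM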
Target sequence (P06280 whole entry, looked up): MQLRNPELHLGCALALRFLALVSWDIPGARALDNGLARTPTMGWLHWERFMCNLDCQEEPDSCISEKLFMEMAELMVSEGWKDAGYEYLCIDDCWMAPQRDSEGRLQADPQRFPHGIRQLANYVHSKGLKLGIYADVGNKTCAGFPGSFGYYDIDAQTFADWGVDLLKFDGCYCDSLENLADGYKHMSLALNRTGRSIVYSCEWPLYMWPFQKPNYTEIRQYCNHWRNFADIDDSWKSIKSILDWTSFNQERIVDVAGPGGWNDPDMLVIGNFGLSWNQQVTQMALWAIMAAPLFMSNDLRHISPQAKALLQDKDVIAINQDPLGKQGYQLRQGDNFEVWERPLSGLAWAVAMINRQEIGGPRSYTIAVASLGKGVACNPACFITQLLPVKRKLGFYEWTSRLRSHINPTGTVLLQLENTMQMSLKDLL
Rango-impB inh: prevents formation of the Rango-importin beta complex; Q14974; Rango CFP/YFP FRET sensor + importin beta, 45 min; Potency, µM (series often up to 92.2 µM), for inactives: at the highest dose inhibition of complex formation; hit rate 0.031% among 340,000; active = rising FRET ratio curve, often small or poorly fitted; inconclusive = mostly compound fluorescence or quenching in the first reads; inactive = flat curves in all reads;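 also: potency is read from the fitted curve at half-maximal effect; 0% = DMSO wells and 100% = buffer wells lacking importin beta; nearly all actives have a fitted effect of over 15% in size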
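FRET biosensor Rango (snurportin 1 IBB between N-terminal EYFP and C-terminal Cerulean), 50 nM in PBS/1 mM DTT/0.02% Tween-20/0.1% BSA, preincubated 5 min RT with compound; 0.125 microM importin beta added, 45 min RT, CFP/YFP FRET ratio read.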
miR-21 reporter: miR-21 reporter, rising signal. HeLa miR-21 FLuc reporter, luciferase, 48 h. Potency, µM (doses to about 38.3 µM), inactives show at the highest dose reporter change, positive = more light. 340,000 tested, under 10 active. AID 2288; active = well fitted rising curve with a large enough effect; inconclusive = small, poorly fitted or top-dose-only effect; inactive = no such curve, though single readings can be large or run the other way;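 also: % of control where 0% means no effect; miR-21 action dims this reporter so a rising signal means less miR-21 action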
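HeLa cells stably expressing CMV-driven firefly luciferase with a downstream miR-21 binding sequence, endogenously expressing miR-21, were treated with titrations (up to about 40uM final) for 48 hours at 37 degree Celsius. Luciferase luminescence was read after lysis.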
Rango release inh: inhibitors of RanGTP-induced Rango-importin beta complex dissociation. Potency, µM (top dose mostly 46.1 µM), without a hit: at the highest dose activity change, negative = inhibition. hit rate 0.071% among 340,000. Biochemical FRET Rango-importin beta, RanGTP-induced dissociation. O95149+P62826; active means falling FRET ratio curve, often poorly fitted, with flat reads before Ran was added; inconclusive means other falling curves, or compound fluorescence or quenching; inactive means flat or rising ratio curve;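 also: potency is read from the fitted curve at half-maximal effect; % of control where 0% means no effect; nearly all actives have a fitted effect of over 45% in size; -100% = wells without RanGTP and RCC1; the record marks most hits as doubtful in a second field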
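Rango (0.1 uM)–importin beta (0.25 uM) complex; RanGTP-RCC1 trigger; 45 min RT; CFP/YFP FRET read.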
Active calls of the source: *; ? = inconclusive; / = no result given; & = joins results of further samples; [ ] = another dose, or the depositor's remark.

Fields: GLA inh pH 4.5	Rango-impB inh	miR-21 reporter	Rango release inh
Cn1c(/C(C#N)=C(\O)c2ccccc2Cl)nc2ccccc21
 : /	0.6%	/	3%
COC(=O)c1cc(CNC(=O)c2cccc(Cl)c2Cl)ccc1OC
 : 0	/	-3%	/
CCN(CC)S(=O)(=O)c1cc(OCC(N)=O)c(C)cc1Cl
 : -2	-2.7%	-9%	7%
CCCC(=O)Oc1ccc(N(C(=O)CCC)S(=O)(=O)c2cccs2)cc1
 : -1	0.8%	-4%	19%
Cc1cccc(C(=O)Nc2ccccc2C(=O)OCC(=O)Nc2ccc(C#N)cc2)c1
 : -5	0.0%	-32%	-4%
O=C(COc1ccccc1)Nc1nc2cc3c(cc2s1)OCCO3
 : /	-0.1%	-22%	4%
O=C(O)c1cccc(S(=O)(=O)NNc2ccccc2C(F)(F)F)c1
 : /	1.2%	-7%	-3%
CCOc1ccc(-c2nc(C#N)c(N3CCN(Cc4ccccc4)CC3)o2)cc1
 : 4	-1.9%	-2%	7%
Cc1cc(C)cc(NC(=O)CCc2ccc(C)o2)c1
 : /	-2.8%	-10%	-7%
O=C(Nc1ccc2c(c1)OCCO2)C1CCN(C(=O)c2ccc(Br)cc2)CC1
 : 6	-1.8%	-11%	-4%
CNc1cc(CS(=O)c2ccccc2)nc(-c2ccccc2)n1 (centres undefined)
 : -14	?	-4%	-25%
Cc1cc(C)nc(-n2nc(C)cc2NC(=O)c2cccc(S(=O)(=O)N3CCCCC3)c2)n1
 : -4	/	-3%	/
CC1CCN(Cc2ccc(NC(=O)C3CCN(c4nnc(-n5cccc5)s4)CC3)cc2)CC1
 : 2	1.1%	-2%	0%
COc1ccccc1N1CCN(C(=O)c2coc(=O)c(Br)c2)CC1
 : 9	0.3%	-2%	27%
COc1cc(/C=N/NC(=O)c2cccnc2)ccc1OS(=O)(=O)c1ccc(F)cc1
 : 0	4.4%	0%	-1%
CC(C)CC(C(=O)O)N1C(=O)C2C3CC(C2C1=O)C1C(c2ccccc2)c2sc(=O)[nH]c2SC31 (centres undefined)
 : 6	?	-1%	?
O=C(O)c1cc(-c2ccc(/C=N/N3C(=O)C4C5C=CC(CC5)C4C3=O)o2)ccc1Cl (centres undefined)
 : 0	-1.1%	-3%	13%
COc1ccc(Oc2ccc(C(F)(F)F)cc2NC(=O)c2ccc(F)cc2)cc1
 : -9	1.9%	-3%	7%
Cc1cc(NC(=O)C(C)SCC(=O)NCc2ccc(F)cc2)no1 (centres undefined)
 : /	3.1%	/	-14%
O=S(=O)(NCCc1ccncc1)c1ccc(F)cc1
 : /	2.3%	-3%	-4%
CCOC(=O)c1[nH]c2ccccc2c1NC(=O)NC1CCCCC1
 : 9	2.6%	1%	-13%
COc1cc(/C=C/C(=O)O)cc(S(=O)(=O)NC2CC2)c1OC
 : -6	-2.1%	-5%	2%
Nc1c(Cl)cc(C2=NCCn3nc4cc(C(F)(F)F)ccc4c32)cc1Cl
 : /	-1.2%	/	4%
COc1ccccc1-c1c(C)oc2c(CN3CCOCC3)c(O)ccc2c1=O
 : /	-0.2%	2%	-14%
CCN(CC)CCN(Cc1cc2cc3c(cc2[nH]c1=O)OCO3)C(=S)NCC(C)C
 : /	-0.5%	-5%	-22%
CCN1CCN(c2ccc(S(=O)(=O)N3CCOCC3)cc2NC(=O)/C=C/c2ccc(OC)cc2OC)CC1
 : /	?	/	-3%
Nc1c(C(=O)Nc2cccc(C(=O)O)c2)sc2nc3c(cc12)CCCC3
 : /	?	6%	?
O=C(NC1CCCCC1)C1CCCN(S(=O)(=O)c2cnc[nH]2)C1 (centres undefined)
 : 0	0.8%	0%	-6%
Cc1cccc(NC(=O)CN2C(=O)N/C(=C/c3cc(C)n(C(C)C)c3C)C2=O)c1
 : 2	?	-9%	?
O=C(CCSc1ccc(Cl)cc1)NC12CC3CC(CC(C3)C1)C2
 : -10	0.1%	-47%	-11%
CC(C)n1c(CN2CCN(C(=O)c3ccco3)CC2)nc2c1c(=O)n(C)c(=O)n2C
 : /	-2.5%	1%	-1%
CCCCn1c(N)c(N(Cc2ccccc2OC)C(=O)CSCC(=O)Nc2cccc(C)c2)c(=O)[nH]c1=O
 : /	-1.4%	3%	-7%
CC(C)CCN1CC(C(=O)NCc2ccccc2)CC1=O (centres undefined)
 : -26	-1.4%	-6%	-5%
COc1ccc(OC(C)C(=O)NCCC2=CCCCC2)cc1 (centres undefined)
 : 0	-0.2%	-14%	6%
CN1C(=O)/C(=C\c2ccco2)N=C1c1ccc(Cl)cc1Cl
 : -9	-4.4%	-14%	2%
COc1ccc(NC(=O)NCCCN2CCC(Cc3ccccc3)CC2)cc1
 : -15	1.0%	-6%	-1%
CC1(N2CCCCC2)C(=O)c2ccccc2C1=O
 : 0	-3.6%	0%	12%
O=C(N/N=C/c1cccc2nccnc12)c1ccncc1
 : 0	5.7%	-2%	-7%
COc1ccc(Cl)cc1NC(=S)N1CCN(c2ccccn2)CC1
 : 1	-3.8%	-4%	-8%
CC12CN3CC(C)(CN(C1)C3c1ccc(Br)cc1)C2=O (centres undefined)
 : -4	3.3%	-1%	3%
Cc1ccc(C(=O)N(CCC2=CCCCC2)c2c(N)n(Cc3ccccc3)c(=O)[nH]c2=O)o1
 : /	-2.8%	/	-13%
O=C(NCCc1ccc2c(c1)OCCO2)c1ccccn1
 : /	0.4%	-35%	2%
CS(=O)(=O)Nc1ccccc1C(=O)OCC(=O)N1CCC(c2ccccc2)=N1
 : /	-1.9%	/	8%
O=C(CSc1ccccc1)N1CCCC(N2CCN(c3ccc(F)cc3)CC2)C1 (centres undefined)
 : /	1.3%	18%	9%
O=C(NCC1CCCO1)C1CC(c2ccc(Cl)c(Cl)c2)=NO1 (centres undefined)
 : 4	-1.2%	-11%	-8%
NCCCCC(N)c1cn([C@@H](CCC(=O)O)C(=O)N2CCNCC2)nn1 (some centres undefined)
 : /	2.6%	/	24%
CN(CCCOc1ccccc1F)Cc1ccccc1
 : /	-0.6%	-4%	-3%
CCN1CCN(c2nnc(-c3ccccc3)c3ccccc23)CC1
 : /	-0.7%	-3%	-2%
COc1ccccc1CNC(=O)Cn1c(=O)oc2cc(S(=O)(=O)N3CCCC3)ccc21
 : /	1.4%	8%&27%	0%
CC1(c2ccccc2)NC(=O)N(CC(=O)N2CCN(S(=O)(=O)c3cccc(C(F)(F)F)c3)CC2)C1=O (centres undefined)
 : /	0.9%	/	-8%

The listing continues:
Fields: GLA inh pH 4.5	Rango-impB inh	miR-21 reporter	Rango release inh
COc1ccccc1CC(=O)NNC(=O)c1ccc(C(C)(C)C)cc1
 : /	2.4%	-22%	20%
CCOc1ccc(C(=O)COC(=O)Cc2n[nH]c(=O)c3ccccc23)cc1
 : /	1.7%	/	0%
CC(C)Cn1cnc2c(SCc3ccccc3Cl)nc(N)nc21
 : /	-4.3%	/	0%
CCOC(=O)c1c(C2CC2)csc1NC(=O)COC(=O)c1ccc[n+]([O-])c1
 : -7	5.4%	-10%	0%
O=C(NC1CCCCC1)c1ccccc1C(F)(F)F
 : 5	-0.9%	-4%	-12%
CC(=O)c1ccc(NC(=O)C(C)OC(=O)C2CCN(c3ccc(C(F)(F)F)cn3)CC2)cc1 (centres undefined)
 : /	0.6%	/	1%
CCC1CCCCN1CCCNC(=O)c1cn(C)c2ccc(S(=O)(=O)N(C)C3CCCCC3)cc2c1=O (centres undefined)
 : /	-0.3%	-2%&-4%	9%
COc1cc(/C=C2\SC(=O)N(c3ccc(O)cc3)C2=O)cc(OC)c1OC
 : -1	2.0%	3%	1%
Cn1cccc1C(=O)NC(=O)COC(=O)CNC(=O)CNC(=O)c1ccc(Cl)cc1Cl
 : -1[21.1 µM]	-3.5%	3%	-11%
COCCNC(=O)C(c1ccc(Cl)cc1)N(CCOC)C(=O)CCC(=O)Nc1ccccn1 (centres undefined)
 : /	-0.1%	6%	4%
C[C@H]1CN([C@@H](C)CO)C(=O)Cc2cc(NS(=O)(=O)c3cccs3)ccc2O[C@H]1CN(C)S(=O)(=O)c1cn(C)cn1
 : /	-0.1%	/	-2%
Cc1cccc(NCc2nnc(-c3ccccc3)o2)c1C
 : 0	-0.7%	-18%	0%
CCOC(=O)c1sc(NC(=O)c2ccc3ncsc3c2)nc1C
 : -3	-5.9%	-37%	0%
CCC1CCCCN1CCCNC(=O)Cn1c2ccccc2c2nc(=O)cc(C)n21 (centres undefined)
 : /	0.9%	0%	9%
CCc1nn(CC(=O)NCCCN2CCc3ccccc3C2)c(=O)c2cc3sccc3n12
 : -3	-0.4%	-14%	-15%
NC(=S)c1cc2cc(Cl)ccc2oc1=O
 : 3	26µM*	-6%	10%
O=C(NCCc1ccccc1)c1ccncc1
 : -1	/	-44%	/
Cc1nn(-c2ccccc2)c(C)c1C(=O)OC(C)C(=O)NC1CCCCC1 (centres undefined)
 : /	0.4%	/	-19%
COC(=O)CNC(=O)c1cccc(F)c1
 : -3	-0.1%	-2%	-17%
Cc1cccc(CCNC(=O)Cc2ccc(NC3=NC4CS(=O)(=O)CC4S3)cc2)c1 (centres undefined)
 : /	-0.2%	-2%	-10%
CC1Cc2nc(SCC(=O)Nc3ccccc3F)n(C)c(=O)c2S1 (centres undefined)
 : 0	-2.4%	-2%	-9%
O=C(N/N=C/c1cnc(N2CCCCC2)s1)c1ccc(Cl)cc1
 : -7	-4.0%	20%	2%
COCC(=O)Oc1c(S(=O)(=O)c2ccc(C)cc2)c(C)nn1-c1ccccc1
 : 8	0.7%	0%	44%
O=C(COC(=O)C1=COCCO1)Nc1ccc(OC(F)F)cc1
 : -7	3.4%	1%	-11%
Cc1ccsc1/C=C(/C#N)C(=O)NCc1ccccc1
 : -14	0.0%	-32%	-9%
Cc1cc(C)c(C)c(S(=O)(=O)N2CCN(C(=O)CCC(=O)N3CCOCC3)CC2)c1C
 : 0	-1.3%	1%	-4%
O=C(Nc1cccc(Cl)c1)c1nc[nH]c1C(=O)N1CCN(c2ccccc2)CC1
 : /	?	/	-11%
O=C(CC(c1ccccc1)c1ccccc1)OCn1nnc2ccccc2c1=O
 : 3	0.9%	-2%	15%
CN(C)S(=O)(=O)c1ccc(Cl)c(NC(=O)COC(=O)CC(NC(N)=O)c2ccc(Cl)cc2)c1 (centres undefined)
 : 8	-0.7%	2%	-8%
Cc1ccc(S(=O)(=O)Nc2ccc(Cl)cc2C(=O)c2ccc(F)cc2)cc1
 : -1	1.6%	8%	-7%
COc1ccc(Cl)cc1NC(=O)CN(C)Cc1ccc(OC)c(OC)c1
 : 5	-0.3%	-14%	2%
CC(c1ccccc1)C(OC(=O)c1cccc([N+](=O)[O-])c1C(=O)O)c1ccccc1 (centres undefined)
 : /	0.2%	/	2%
Cn1c(=O)[nH]c(=O)c2c1nc(N1CCNCC1)n2Cc1ccccc1Cl
 : /	0.2%	-5%	-4%
O=C(C[n+]1ccccc1)N/N=C/c1ccco1
 : -4	-3.1%	1%	-6%
CCC1(CC)C(=O)C2=C3C1[C@H](C(=O)OC)C=C(C(=O)OC)C[C@H]3[C@H]1C(=O)NC(=O)[C@H]1[C@H]2C (some centres undefined)
 : /	3.3%	/	-8%
O=C(COc1ccc(S(=O)(=O)N2CCCC2)cc1)NCCC1=CCCCC1
 : -6	?	1%	-12%
COc1cc(OC)cc(C(=O)Nc2ccccc2C(=O)NCc2cccnc2)c1
 : /	-1.9%	4%	1%
CNC(=S)N1C2CCC1CC(NC(=O)NC13CC4CC(CC(C4)C1)C3)C2 (centres undefined)
 : 7	0.6%	-18%	-3%
Cc1cc(C)c(S(=O)(=O)N2CCN(C(=O)N(C)C)CC2)c(C)c1
 : 8	-0.1%	-1%	-1%
S=C(Nc1ccc2c(c1)OCCO2)Nc1ccc2c(c1)OCO2
 : 2	0.9%	-44%	-23%

Profiles from above. Order of screens: GLA inh pH 4.5 | Rango-impB inh | miR-21 reporter | Rango release inh
Listed for `Cc1cc(C)c(C)c(S(=O)(=O)N2CCN(C(=O)CCC(=O)N3CCOCC3)CC2)c1C` = 0 | -1.3% | 1% | -4%
Listed for `CCN(CC)S(=O)(=O)c1cc(OCC(N)=O)c(C)cc1Cl` = -2 | -2.7% | -9% | 7%

Some of the compounds tested; count on the stated rates, not on these rows.
